Screens from PubChem.
Sa ugtP lethal: growth inhibition of ugtP-null S. aureus, primary screen, RN4220 ugtP deletion, OD600; 16 h; some inactives read as strong as hits; growth inhibition, % (concentration not given with the values); 330,000 tested, 0.54% active;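 active = z-score under -3 and OD600 up to 0.15 on both plates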;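 also: plate controls were untreated wells for no effect and antibiotic for full effect; wells of about 80 µL received 100 nL stock; the first replicate is given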
Mtb hypoxia inh: PubChem AID 1159583; 300,000 tested, 0.1% active; fluorescence inhibition, % (no concentration beside the values); M. tuberculosis hypoxia-regulated fluorescent reporter, fluorescence;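 active = 35 to 45% if threefold the growth effect, above 45% if 1.5-fold the growth effect; inactive = the rest, general growth blockers included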;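 also: wells of about 50 µL received 100 nL stock; 0% = vehicle wells and 100% = reference inhibitor wells; whole bacteria with a GFP reporter of the hypoxia response; strong numbers were not always called active; many hits fall short of the cut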
BJeLR lethal: MLPCN primary cell-based screen for lethality selective to Ras in HRASV12 cells. BJeLR (HRASV12) viability, CellTiter-Glo ATP luminescence, 48 h; reference of the scale not given here. inhibition, % (concentration not given with the values). 300,000 tested, 0.17% active;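 active = replicate mean above 50%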;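 also: 50 nL library stock added to about 25 µL; numbers are from one replicate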
Autofluor counter: compound fluorescence in toxin protease inhibitor counterscreen; compound autofluorescence counterscreen, microsphere flow cytometry; active compounds read high; AID 624483; 360,000 tested, 3.1% active; fluorescence intensity (concentration not given with the values);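 active = at least 3 SD above the mean of all compounds, about 16000 in these data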;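 also: 100 nL of 1 mM stock went into each well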
RN4220 kill: growth inhibition of S. aureus RN4220, primary screen, OD600 | 16 h | inhibition, % (concentration not given with the values) | 330,000 tested, 0.33% active | AID 1259311, 2017;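 active = z-score of -3 or lower and OD600 up to 0.18 on both plates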;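 also: plate controls were untreated cells for no effect and reference antibiotic for full effect; stock transfer was 100 nL into about 80 µL; one replicate is shown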
PrP UTR inh: inhibition of PrP 5' UTR reporter expression; inhibition, % (test concentration not listed); cell-based PrP 5' UTR mRNA reporter, plate reader; 340,000 tested, 0.35% active;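 active = every replicate at 50% or more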;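 also: 0 = median of the neutral control wells; tested in H4 reporter cells; numbers are from one replicate; inactives centre near -14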
Mtb hypoxia inh growth: recorded beside Mtb hypoxia inh, whose call it bears; growth inhibition, %; measured here: M. tuberculosis growth (absorbance);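 0% = vehicle and 100% = reference antibiotic; read after six days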
The depositor's hits bear a star; . = not tested or not shown.

Every second line gives: Sa ugtP lethal	Mtb hypoxia inh	Mtb hypoxia inh growth	BJeLR lethal	Autofluor counter	RN4220 kill	PrP UTR inh
CCC(=O)N1CCc2cc(S(=O)(=O)NCCC(=O)Nc3ccccc3C)ccc21
    16	9	0	-11	6276	5.1	-24
NC(=O)CNC(=O)c1cccc(Cl)c1
    7	14	4	5	3746	2.0	-14
C=C(C)c1cccc(C(C)(C)NC(=O)Nc2ccc(OC)cc2)c1
    9	-4	4	-5	2181	0.4	-2
CC1CCN(CCNC(=S)Nc2ccc(Cl)cc2)CC1
    4	15	2	23	6464	8.2	46
O=C(Nc1ccccc1C(=O)O)c1cccc(NC(=O)c2ccccc2Br)c1
    -7	-5	2	3	4086	3.4	-13
CSc1ncc(Cl)c(C(=O)Nc2c(C)cccc2C)n1
    3	8	2	-4	3680	-3.1	-8
COCC(=O)NC1CCN(C(=O)NCc2ccccc2)CC1
    0	7	9	-8	5325	7.1	-22
COCC=CC1=CC2=CC(=O)C(C)(OC(=O)c3cnc4ccccc4n3)C(=O)C2=CN1CCCCO (configuration not stated)
    1	8	6	.	.	4.6	.
CCCc1ncc(C(O)c2ccc(OC)cc2)n1C (configuration not stated)
    7	3	-1	-4	7800	5.9	-24
O=C(CN1CCCCC1)NNc1nc(-c2ccccc2)c2cc(Cl)ccc2n1
    5	19	9	1	4153	3.9	-3
O=C(N/N=C/c1ccc(OC(=O)c2ccccc2Cl)cc1)c1ccc(O)cc1
    .	.	.	-6	6059	.	8
Cc1c(C(=O)N2CCCC2)oc2c1-c1[nH]ncc1CC2
    2	3	2	8	5096	-5.1	-23
CCC(=O)c1c[nH]c(C(=O)NCc2ccco2)c1
    -2	.	.	-2	2732	-0.7	-7
CCNc1nc(Cl)nc(-c2cn(-c3ccccc3)c3ccccc23)n1
    -10	5	3	-5	2958	0.8	-8
O=C(CCCCN1CCCCC1)c1ccccc1
    4	13	-2	3	5781	0.2	-30
Cc1ccc(S(=O)(=O)N(C)C)cc1NC(=S)NNC(=O)C(N)=O
    .	.	.	-8	3497	.	-15
COc1ccc(CN2C(=O)CC(=O)NC2=O)cc1
    -2	5	6	-2	21705*	1.0	-13
CCOc1ncccc1C(=O)NNC(=O)CSc1ccc(Cl)cc1
    2	11	10	.	.	6.2	.
Nc1ccncc1
    -2	16	16	0	4324	5.8	-7
CCn1ccnc1CN1CCc2c([nH]c3ccccc23)C1CC(C)C (configuration not stated)
    2	2	11	9	4219	2.0	-33
CCOc1ccc(S(=O)(=O)N(CC)CC(=O)NCc2cccnc2)cc1C
    11	5	6	10	3552	-1.9	-3
COc1cc2c(cc1OC)CN(CC(=O)Nc1ccc(F)cc1)CC2
    12	17	3	5	2934	-0.7	-21
COc1ccccc1C(=O)NC(CCSC)C(=O)NNC(=O)c1ccccc1C (configuration not stated)
    12	8	-2	-1	.	5.9	-6
COCC1CCCN(Cc2cn(-c3ccccc3F)nc2-c2cc(C)sc2C)C1 (configuration not stated)
    10	0	0	2	5260	3.5	-20
O=C(NCCc1ccccc1)C1CCN(S(=O)(=O)c2cccnc2)CC1
    6	0	3	9	5454	1.9	-35
CCCCCCn1c(SCCC)nc2c1c(=O)[nH]c(=O)n2C
    1	.	.	-2	2761	2.4	-5
CC1(C2CC2)NC(=O)N(CC(=O)Nc2ccc(F)cc2F)C1=O (configuration not stated)
    -1	3	-3	.	9572	-0.4	-17
N=c1c(C(=O)NCC2CCCO2)cc2c(=O)n3ccccc3nc2n1Cc1cccnc1 (configuration not stated)
    -2	.	.	-1	4707	2.5	-9
CCOc1ccc(C(=O)Nc2ccccc2N2CCOCC2)cc1
    -2	.	.	-6	4342	-3.2	-14
CCn1cc(CNCc2cn(-c3ccccc3C)nc2-c2ccc(OC)c(F)c2)cn1
    -1	11	2	4	4432	-2.0	-43

An excerpt of these results, in CSV form.
structure,Sa ugtP lethal,Mtb hypoxia inh,Mtb hypoxia inh growth,BJeLR lethal,Autofluor counter,RN4220 kill,PrP UTR inh
COc1ccccc1C(=O)NC(CCSC)C(=O)NNC(=O)c1ccccc1C (configuration not stated),12,8,-2,-1,.,5.9,-6
COCC1CCCN(Cc2cn(-c3ccccc3F)nc2-c2cc(C)sc2C)C1 (configuration not stated),10,0,0,2,5260,3.5,-20
O=C(NCCc1ccccc1)C1CCN(S(=O)(=O)c2cccnc2)CC1,6,0,3,9,5454,1.9,-35

New compounds follow.
Every second line gives: Sa ugtP lethal	Mtb hypoxia inh	Mtb hypoxia inh growth	BJeLR lethal	Autofluor counter	RN4220 kill	PrP UTR inh
O=C(NCc1nnc2c3ccccc3c(-c3ccccc3)nn12)c1ccc(Cl)cc1
    83	6	3	-5	2568	78	-7
Cc1ccc(CSc2ccc(S(=O)(=O)N3CCOCC3)cn2)cc1
    8	1	11	.	.	6.4	-12
O=C(CSc1nc(-c2ccco2)cc(C(F)(F)F)n1)N1CCN(c2cccc(Cl)c2)CC1
    -12	6	7	-4	3298	-6.0	-36
CCOc1ccc(NC(=O)CN(C)C(=O)CCSc2ccc(F)cc2)cc1OCC
    6	6	-3	.	3524	0.0	-2
COc1ccc(Oc2nnnn2-c2ccccc2)cc1
    -2	-1	14	-5	22772*	3.9	-9
Cc1ccc(Cn2nc(C)c(NC(=O)c3cc(-c4ccc5c(c4)OCO5)on3)c2C)cc1
    -13	2	3	-15	.	3.9	.
Nc1nc[nH]c(=O)c1N=Cc1ccccc1
    5	-3	6	3	4935	3.0	-8
COc1cccc(NC(=O)c2ccccc2-c2nc(-c3ccccc3)no2)c1
    5	.	.	.	3476	-5.3	-14
CC(C)(C)NC(=O)CSc1nncn1NCc1c(Cl)cccc1Cl
    4	4	5	2	2922	1.3	-8
C=CCOc1c(Cl)cc(C2NC(=O)NC(C)=C2C(=O)OC)cc1Cl (configuration not stated)
    6	14	3	-3	13566	9.2	-11
C[C@H]1CN=C(Nc2ccccc2)N1CCCC1CCCCC1
    .	.	.	0	4275	.	-18
O=C(c1ccc(CS(=O)Cc2ccccc2Cl)o1)N1CCN(C2CCCCC2)CC1 (configuration not stated)
    4	7	2	8	6090	3.4	3
O=C(NNc1cccc(Cl)n1)c1ccc(Cl)nc1
    3	5	7	-1	2498	-2.5	-21
CCCCN(CCCC)/C(N)=N/c1nc(C)cc(C)n1
    3	5	17	3	4742	4.5	-43
CC1CC(C)(C)NC(=O)O1 (configuration not stated)
    .	.	.	-4	3242	.	-15
O=C(CCCC(=O)N1CCCC1)N1CCCC1
    2	3	7	1	3777	3.0	.
O=S(=O)(NC1CCCC1)c1cccc(S(=O)(=O)N2CCC(n3nnc4ccccc43)CC2)c1
    2	12	17	-1	7963	2.0	-17
CCN1CCN(C(c2cccc(OC)c2)c2sc3nc(C)nn3c2O)CC1 (configuration not stated)
    10	5	6	1	1889	2.9	0
CC(C)Oc1ccc(C2CC(=O)N(Nc3ccc([N+](=O)[O-])cc3[N+](=O)[O-])C2=O)cc1 (configuration not stated)
    -4	-3	14	10	4804	2.6	-16
Cn1c(-c2ccccc2)cc2c3no[n+]([O-])c3ccc21
    58	47*	26*	11	2307	23	-52
Cc1cccc(CCNC(=O)C2CCC(CNS(=O)(=O)c3cccs3)CC2)c1 (configuration not stated)
    -4	-2	5	3	3422	-2.6	6
CC(C)c1ccc(NC(=O)COc2ccc(F)cc2C(=O)c2cnn(-c3ccccc3)c2)cc1
    -21	7	4	-2	2400	-0.6	-51
O=C(O)CCC(=NNc1ccc(S(=O)(=O)N2CCCC2)cc1[N+](=O)[O-])c1cccs1
    -3	3	3	.	.	8.5	.
O=C(COc1ccc(/C=N/NS(=O)(=O)c2ccccc2)cc1)Nc1ccc(F)cc1
    .	.	.	-7	3271	.	-33
O=C(c1ccccc1NS(=O)(=O)c1ccc(Cl)cc1)N1CCc2ccccc21
    -14	0	-4	-3	2501	19	-94
Cc1nc(Nc2ccccc2Cl)sc1C(=O)Nc1ccccc1
    -26	3	-4	-1	10760	4.2	-54
O=C(CS(=O)(=O)c1ccccc1)Nc1ccc(S(=O)(=O)Nc2ccccn2)cc1
    -13	-8	12	4	4273	-0.6	-9
CCCCC(O)(CCCC)C(=O)NN(C(=O)OC)c1ccccc1
    3	6	8	-8	6855	3.1	-25
C=CCSC1=NC(N)=C(C#N)C2(CCCCC2)C1C(N)=O (configuration not stated)
    -10	1	5	-3	9686	3.2	-1
Cc1nc([N+](=O)[O-])c(Br)n1CC(=O)c1ccc(Cl)cc1
    22	.	.	3	2710	11	-11
C=CCn1c(CCSCc2ccc(OC)c(C)c2)n[nH]c1=S
    3	10	1	-9	4357	6.2	-17
CCN1CCN(c2nc3c(C)cccn3c(=O)c2/C=C(\C#N)S(=O)(=O)c2ccc(C)cc2)CC1
    3	.	.	-1	3795	2.6	-20
N#Cc1ccc(OCC(=O)NN=CC2CC=CCC2)cc1 (configuration not stated)
    9	16	1	.	.	4.6	.
COc1ccc(C2CC(=O)c3cnc(NC(=O)c4ccco4)nc3C2)cc1 (configuration not stated)
    8	6	12	-5	5686	-3.7	-19
Cc1ccc(S(=O)(=O)N2CCCCC2)cc1NC(=O)CSc1nnnn1C
    13	3	10	-7	5957	3.9	-27
CC(C)(C)NC(=O)C(=O)NNC(=O)c1cccc([N+](=O)[O-])c1
    8	-9	3	1	4001	5.9	-17
CCn1c(SCC(=O)c2ccc(O)c(O)c2)nnc1-c1ccccc1
    4	7	-6	-12	2822	9.4	-21
COc1ccc(-c2n[nH]c(C)c2-c2ccccc2OC)c(O)c1
    -3	-3	-4	-11	3778	-0.2	6
Cn1c(NC(=O)c2ccccc2)nc2ccccc21
    -5	4	13	0	3691	8.0	-69
COc1ccc(OC)c2sc(NC(=O)CCS(=O)(=O)c3ccccc3)nc12
    .	.	.	1	6053	.	-4
CCN(CC)C(=O)c1sc(NC(=O)c2ccco2)c(C#N)c1C
    10	7	-2	-8	6459	4.1	-32
CS(=O)(=O)c1ccc2nc(NC(=O)c3cccs3)sc2c1
    -2	.	.	.	4395	-1.9	-18
COCCNc1nc2c(-c3cccc(C(F)(F)F)c3)nnn2c2ccccc12
    14	9	4	-3	3454	-5.2	0
CCN(CC)S(=O)(=O)c1ccc2c(c1)nc(SCC(=O)N1CCOCC1)n2-c1ccccc1OC
    0	3	-1	6	9370	1.9	-10
CCOc1ccc(-c2nc(N)ncc2-c2ccccc2)c(O)c1
    31	-82	-24	6	8486	-2.1	-1
Cn1c(=O)c2c(nc(N/N=C/c3cccnc3)n2Cc2ccc(F)cc2)n(C)c1=O
    .	.	.	0	4415	.	-4
N#Cc1ccc(CSc2nnc(-c3cccnc3)o2)cc1
    2	21	18	5	4129	6.2	-27
CC(C)CCNC(=O)c1ccc2nc[nH]c2c1
    -3	-5	-12	12	2492	0.3	-15
Cc1ccc(-n2nc(C)c(NC(=O)CCl)c2C)cc1
    8	.	.	-7	2458	3.7	-14
CCCCN1C=CC(=C2N=c3cccc([N+](=O)[O-])c3=N2)C=C1
    -2	-3	1	3	2281	-1.2	-16
Cc1c(CC(=O)N[C@@H](CCCNC(N)=O)C(=O)O)c(=O)oc2cc3oc4c(c3cc12)CCCC4
    .	.	.	0	3025	.	-10
CCOC(=O)c1sc(C)c2c1NC1(CCCCC1)NC2=O
    -10	1	-1	-4	10266	4.7	.
Cn1nc(C(C)(C)C)c([N+](=O)[O-])c1C(=O)Nc1ccccc1
    .	.	.	-16	2295	.	1
COc1ccc(NC(=O)c2oc3ccccc3c2NC(=O)COc2ccccc2OC)c(OC)c1
    -8	0	4	-5	9797	9.2	-19
CCCOc1cccc(C(=O)NCCNC(=O)c2ccco2)c1
    5	4	2	6	3251	8.7	8
CCCC1=C(C(=O)OCC)C(c2cccs2)C(C#N)=C(N)O1 (configuration not stated)
    1	3	1	-3	22890*	8.1	-2
O=C(COC(=O)c1sc2ccccc2c1Cl)NCC1CCCCC1
    -5	4	1	-16	2518	-0.9	-9
OC1(C#CCN2CCOCC2)CCCCC1
    5	-2	6	2	2031	-0.7	-14

Rows are unselected; any-hit rate near 4%.
